UCH37 inh = human UCH37 deubiquitinating enzyme inhibition | purified proteasome/UCH37, Ub-AMC cleavage fluorescence | Q9Y5K5 | 330,000 compounds, 0.33% hits | inhibition, % (no concentration beside the values) | AID 588478;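 active means mean of two replicates above 20%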;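 further: 0% = compound-free wells with enzyme and 100% = wells lacking proteasome; stock transfer was 100 nL into about 20 µL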
Target sequence (Q9Y5K5 whole entry, looked up): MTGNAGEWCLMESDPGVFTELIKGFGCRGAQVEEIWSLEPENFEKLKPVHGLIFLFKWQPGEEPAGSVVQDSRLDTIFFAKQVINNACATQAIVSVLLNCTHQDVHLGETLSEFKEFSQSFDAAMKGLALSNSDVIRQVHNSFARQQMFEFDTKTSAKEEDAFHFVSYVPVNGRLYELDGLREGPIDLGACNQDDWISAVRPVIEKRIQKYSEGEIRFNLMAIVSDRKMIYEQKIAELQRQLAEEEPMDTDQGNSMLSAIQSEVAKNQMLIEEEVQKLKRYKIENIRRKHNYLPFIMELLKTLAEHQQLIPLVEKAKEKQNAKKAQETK
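Assay system: Proteasome-bound UCH37. Buffer or medium: pH 7.4 Tris-HCl (50 mM) with ovalbumin, ATP-MgCl2, DTT. Incubation: 30 min preincubation with enzyme, 25 min cleavage at room temperature. Measured by: fluorescence, ex 355 nm, em 460 nm. Read-out basis: percent inhibition. Control set: wells without proteasome as full block, compound-free enzyme plus substrate as uninhibited.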
Beta2AR agonist = activates human beta-2 adrenergic receptor causing internalization; P07550; Am2.2-beta2AR cells, FAP receptor internalization, flow cytometry; reference of the scale not given here; 340,000 compounds, 0.43% hits; response, % (test concentration not listed); AID 504454;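 active means response above a set limit, near 3 SD of response in nonfluorescent compounds, cut at about 42% in these data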;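 further: stock transfer was 100 nL into about 11 µL; a reference agonist was the positive control; negative values mostly stem from fluorescent compounds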
Target sequence (P07550 whole entry, looked up): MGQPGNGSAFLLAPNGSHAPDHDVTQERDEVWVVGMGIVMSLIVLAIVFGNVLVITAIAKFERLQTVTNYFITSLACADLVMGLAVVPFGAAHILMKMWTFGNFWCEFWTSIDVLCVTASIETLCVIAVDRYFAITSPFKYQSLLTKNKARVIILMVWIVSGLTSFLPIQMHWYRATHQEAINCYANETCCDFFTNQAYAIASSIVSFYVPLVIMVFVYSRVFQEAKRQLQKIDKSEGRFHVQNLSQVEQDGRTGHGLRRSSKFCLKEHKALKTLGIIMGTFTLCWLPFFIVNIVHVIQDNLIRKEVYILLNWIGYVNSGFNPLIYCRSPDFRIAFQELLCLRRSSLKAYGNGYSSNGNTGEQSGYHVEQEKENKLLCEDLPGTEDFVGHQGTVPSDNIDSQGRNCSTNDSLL
* = called active by the depositor.

Start of the data: the first 2 entries, to show the layout:
UCH37 inh	Beta2AR agonist	Molecule
-1.8	-6	Cc1cc(NS(=O)(=O)c2ccc(NC(=O)c3ccoc3C)cc2)nc(C)n1
5.6	-1	Cc1ccc(S(=O)(=O)N(CCC(=O)NCC(c2ccccc2)N(C)C)c2ccccc2)cc1 (stereo not given)

Main list, previewed entries included:
UCH37 inh	Beta2AR agonist	Molecule
-1.8	-6	Cc1cc(NS(=O)(=O)c2ccc(NC(=O)c3ccoc3C)cc2)nc(C)n1
5.6	-1	Cc1ccc(S(=O)(=O)N(CCC(=O)NCC(c2ccccc2)N(C)C)c2ccccc2)cc1 (stereo not given)
-0.9	-4	O=C(NNC(=O)c1ccc2ccccc2n1)c1ccc(O)cc1
2.6	-8	CCCNS(=O)(=O)c1cc2c(cc1Br)CCN2C(=O)CC
2.6	6	O=C(COC(=O)c1ccc(Br)o1)Nc1ccc(N2CCOCC2)cc1
3.7	13	Cc1nc2c(cnn2CCO)c(=O)[nH]1
4.0	-1	Cc1ccc(NNC2CC(=O)N(c3cccc(Cl)c3)C2=O)cc1 (stereo not given)
3.8	-1	CC(C)NC(=O)Nc1cccc2c1O[C@H](CN(C)S(=O)(=O)c1ccc(F)cc1)[C@@H](C)CN([C@H](C)CO)C2=O
5.0	-2	CCOc1ccc(S(=O)(=O)N2CCN(C3CC(=O)N(c4cccc(C(C)=O)c4)C3=O)CC2)cc1 (stereo not given)
-0.8	7	CC(C)CN(C(=O)Cn1c(C(F)(F)F)nc2ccccc21)c1c(N)n(Cc2ccccc2)c(=O)[nH]c1=O
-1.3	2	Nc1c(N(CCO)C(=O)c2ccccc2OCc2ccccc2Cl)c(=O)[nH]c(=O)n1Cc1ccccc1
3.5	3	O=C(N[C@@H]1c2ccccc2CC[C@@H]1OCc1ccccc1)c1ccc(-c2ccccc2)cc1
2.2	0	CN1CCC(N(C)C(=O)/C(C#N)=C\c2ccc(OC(F)F)cc2)CC1
3.0	-2	C[C@H](CO)N1C[C@H](C)[C@@H](CN(C)S(=O)(=O)c2ccc(F)cc2)Oc2c(NS(=O)(=O)c3ccccc3)cccc2C1=O
4.3	6	Cc1ccc(NC(=O)COC(=O)C2(C)CC2(Cl)Cl)cc1S(=O)(=O)N1CCOCC1 (stereo not given)
3.2	-8	COc1ccc2nc(SC(C)C(=O)NCC(=O)Nc3ccc(F)c(F)c3F)[nH]c2c1 (stereo not given)
-1.7	3	O=[N+]([O-])c1ccc(NN=Cc2ccc3c(c2)OCO3)nc1
2.0	1	O=C1CC(c2ccccc2)=NO1
4.8	-4	Cc1ccc(C(=O)N2[C@@H]3CN(C)C(=O)[C@@]2(Cc2ccccc2)[C@H]2C(=O)N(C)C(=O)[C@@H]32)cc1
1.4	-5	CC(Sc1nnc(Cc2cccs2)n1C1CC1)C(=O)NC1CCS(=O)(=O)C1 (stereo not given)
5.1	6	Cc1ccc(C)c(NC(=O)CN(C)C(C)C(=O)N2CC(C)CC(C)C2)c1 (stereo not given)
-35	-7	COCCN(C(=O)Cc1csc(-c2cccc(Cl)c2)n1)c1c(N)n(Cc2ccccc2)c(=O)[nH]c1=O
0.3	-3	CCOc1ccc2nc(SCC(=O)N(CC(C)C)c3c(N)n(CC(C)C)c(=O)[nH]c3=O)[nH]c2c1
1.5	-9	NS(=O)(=O)c1ccc(CCNC(=O)COC(=O)CCN2C(=O)C3CC=CCC3C2=O)cc1 (stereo not given)
4.7	-9	C=CCn1c(SCC(=O)NCC(c2ccccc2)N(C)C)nc2sc3c(c2c1=O)CCC3 (stereo not given)
3.0	2	CCOC(=O)CC[C@H](NC(=O)Cn1cnc2c(NCc3ccccc3)ncnc21)C(=O)OCC
-0.2	-2	Cc1cccc(N2CCN(CC(O)COc3ccc4ccccc4c3)CC2)c1 (stereo not given)
1.5	-1	C=C(C)CNc1cc(S(=O)(=O)N2CCOCC2)ccc1Oc1ccccc1
3.9	-1	COc1cccc(NC(=O)CN(C)C(=O)c2cc(CN3C(=O)c4ccccc4C3=O)ccc2OC)c1
7.8	1	CCOC(=O)c1c[nH]c2ccc([N+](=O)[O-])cc12
-3.0	0	CCCCn1c(N)c(N(CCOC)C(=O)c2cc(S(=O)(=O)N3CCOCC3)ccc2Cl)c(=O)[nH]c1=O
-0.1	0	CN1C[C@@H]2[C@@H]3C(=O)N(Cc4ccccc4)C(=O)[C@@H]3[C@](Cc3ccccc3)(C1=O)N2C(=O)c1ccc(C(C)(C)C)cc1
0.8	-5	O=C(O)C1CCCN1C(=O)C1CCN(S(=O)(=O)c2cccc(C(F)(F)F)c2)CC1 (stereo not given)
-2.2	4	CC1(C)CC(=O)C(Br)=C(O)C1
-3.3	-2	COc1ccc(C(=O)COC(=O)C2CCN(c3ccc(C(F)(F)F)cn3)CC2)c(OC)c1
0.9	0	O=C(c1cc(F)c(F)cc1Cl)N1CCN(S(=O)(=O)c2cccs2)CC1
0.0	7	CCOC(=O)C1=C(COC(=O)CNS(=O)(=O)c2ccc(NC(C)=O)cc2)NC(=O)NC1C (stereo not given)
2.5	-1	COc1cccc([C@@H]2CC=C(C(=O)O)[C@H](c3ccc(C)cc3)N2S(=O)(=O)c2ccc(C)cc2)c1
-18	-5	CC[C@]12c3[nH]c4cc(-c5ccco5)ccc4c3CCN1C(=O)[C@@H](CC(=O)NCCN1CCOCC1)C[C@@H]2C(=O)N1CCN(C(=O)C2CC2)CC1
3.5	7	COc1ccc(CNC(=O)c2ccc(S(=O)(=O)N3CC(C)CC(C)C3)cc2)cc1OC (stereo not given)
-0.5	-7	COc1ccc2[nH]c3c(c2c1)CCN1C(=O)C(CC(=O)NCc2ccco2)C[C@H](C(=O)N(C(C)C)C(C)C)[C@@]31C (stereo not given in full)
1.5	-5	C[C@@H]1CN(S(=O)C(C)(C)C)[C@@H](CCO)/C1=C\c1ccccc1 (stereo not given in full)
2.9	-1	Cc1ccc(C)c(S(=O)(=O)N2CCN(C(=O)CCC(=O)NCc3ccc(Cl)cc3Cl)CC2)c1
2.6	-4	O=C(CSCC(=O)NN=Cc1ccccc1O)NN=Cc1ccccc1O
4.7	30	Cc1ccc2c(c1)c1c(n2CC(O)CNC(C)(C)C)CCCC1 (stereo not given)
3.9	3	Cc1cc2oc(=O)cc(-c3ccccc3)c2c(C)c1-c1ccc(F)c(Cl)c1
3.2	11	COc1cccc(C=Nc2cc(C(C)C)c(O)cc2C)c1O
3.8	-6	Cc1cnc(C(=O)N2CCN(S(=O)(=O)c3cc(C(F)(F)F)cc(C(F)(F)F)c3)CC2)cn1
2.5	4	CCN1CCN(c2ccc(S(=O)(=O)N3CCOCC3)cc2NC(=O)c2ccc(OCC(C)C)cc2)CC1
1.7	4	O=C(COC(=O)c1ccc(F)cc1Cl)NC1CCS(=O)(=O)C1 (stereo not given)
6.6	-4	CCC(=O)c1ccc(OCC(=O)OC(C)C(=O)Nc2c(C)n(C)n(-c3ccccc3)c2=O)cc1 (stereo not given)
6.9	-68	N#CCSc1ccccc1NC(=O)COC(=O)Cc1c[nH]c2ccccc12
4.7	9	O=C(Nc1cc(S(=O)(=O)N2CCOCC2)ccc1N1CCCC1)c1cc(F)c(F)cc1Cl
4.7	19	O=C(CCC(=O)N1CCN(S(=O)(=O)c2ccc(Cl)cc2)CC1)NCc1cccc(C(F)(F)F)c1
8.5	4	COc1c2c(c3c(c1OC)c(=O)c1ccccc1n3C)OCO2
1.9	3	CCOC(=O)c1ccc(S(=O)(=O)N2CCC(C(=O)Nc3nnc(C)o3)CC2)cc1
1.9	-12	CCN1CCN(Cc2nc3c(c(=O)n(C)c(=O)n3C)n2CCc2ccccc2)CC1
1.3	16	CC(C)(C)c1ccc(OCCCC(=O)Nc2cccc(S(=O)(=O)N3CCOCC3)c2)cc1
0.1	0	c1ccn(CCc2ccncc2)c1
0.8	17	O=[N+]([O-])c1ccc2nc(NN=Cc3ccc(O)cc3)sc2c1

The list continues.
UCH37 inh	Beta2AR agonist	Molecule
1.1	-80	N#CCSc1ccccc1NC(=O)COc1ccc(-c2nnco2)cc1
7.3	-2	CS(=O)(=O)Nc1ccc(C(=O)CSc2nnc(C3CC3)n2C2CC2)cc1
1.6	-3	COc1cc2c(c(OC)c1OC)C(=O)CO2
-1.3	-1	COC(=O)[C@]1(Cc2ccccc2)N[C@H](CN(C)C(=O)c2ccc(F)cc2)[C@@H]2C(=O)N(C)C(=O)[C@@H]21
-0.8	13	Cc1cccc(NC(=O)CN2C(=O)N/C(=C/c3cc(C)n(C)c3C)C2=O)c1
1.7	12	COc1ccc(CN(CC(O)COCc2ccccc2)S(=O)(=O)c2ccccc2Br)cc1 (stereo not given)
0.4	6	CC(=O)Nc1cc2c(cc1Cl)-c1ccccc1C2
3.9	5	CC(C)NS(=O)(=O)c1ccc(NC(=O)C(C)OC(=O)CCC2CCCCC2)cc1 (stereo not given)
5.7	-3	Cc1ccc(C(=O)NN=Cc2ccc3c(c2)OCO3)cc1
0.6	3	Cc1ccc(S(=O)(=O)N2C[C@@H]3CCCC[C@@H]3[C@@H](C)[C@H]2c2cn(Cc3ccccc3)c3ccc(F)cc23)cc1
3.3	0	Cc1ccc(OCCC(=O)Nc2cc(S(=O)(=O)N3CCOCC3)ccc2N2CCCC2)cc1
-1.9	15	CCN(CC(=O)Nc1ccc(NC(C)=O)cc1)C(=O)c1cc([N+](=O)[O-])ccc1Sc1ccc(Cl)cc1
2.2	5	CC1=CC(C)(C)NC(=S)N1c1ccc(Cl)cc1
-0.2	6	O=C1N[C@@H](Cc2c[nH]c3ccccc23)COC(=O)[C@@H](Cc2ccc(F)cc2)CC/C=C/C[C@@H]1CC(=O)N(CCO)Cc1ccccc1
0.2	0	C[C@]12c3[nH]c4ccc(Cl)cc4c3CCN1C(=O)[C@@H](CC(=O)NCc1ccco1)C[C@@H]2C(=O)N1CCOCC1

6 records picked at random from the list so far:
UCH37 inh	Beta2AR agonist	Molecule
-1.3	-1	COC(=O)[C@]1(Cc2ccccc2)N[C@H](CN(C)C(=O)c2ccc(F)cc2)[C@@H]2C(=O)N(C)C(=O)[C@@H]21
3.3	0	Cc1ccc(OCCC(=O)Nc2cc(S(=O)(=O)N3CCOCC3)ccc2N2CCCC2)cc1
7.3	-2	CS(=O)(=O)Nc1ccc(C(=O)CSc2nnc(C3CC3)n2C2CC2)cc1
5.7	-3	Cc1ccc(C(=O)NN=Cc2ccc3c(c2)OCO3)cc1
1.6	-3	COc1cc2c(c(OC)c1OC)C(=O)CO2
1.7	12	COc1ccc(CN(CC(O)COCc2ccccc2)S(=O)(=O)c2ccccc2Br)cc1 (stereo not given)

(listing goes on)
UCH37 inh	Beta2AR agonist	Molecule
1.5	-2	COc1ccc(-c2noc(CCC(=O)N3CCN(c4ccc(Br)cc4)CC3)n2)cc1
2.2	3	CN(Cc1ccccc1)C(=O)c1cccc(NC(=O)Cc2cccc(NC(=O)C3CCN(C(=O)C4CCC4)CC3)c2)c1
-4.2	5	CC(C(=O)Nc1ccc2c(c1)OCO2)N(C)CC(=O)Nc1ccc(Cl)cc1 (stereo not given)
5.3	-2	CCN(C[C@H]1N[C@@](Cc2ccccc2)(C(=O)OC)[C@H]2C(=O)N(C)C(=O)[C@@H]12)S(=O)(=O)c1ccc(-c2ccccc2)cc1
3.5	0	CC(C)N(C(=O)[C@H]1C[C@H](CC(=O)NCCc2ccccn2)C(=O)N2CCc3c([nH]c4cc(CCC(=O)N(C)C)ccc34)[C@]12C)C(C)C
0.0	14	CCOC(=O)C(CCc1ccccn1)c1ccccc1 (stereo not given)
3.3	2	Cc1cc(C)c(NC(=O)CN(C)CC(=O)N(C)CC(=O)Nc2c(Cl)cccc2Cl)c(C)c1
1.4	4	O=C(COC(=O)COc1ccc(Cl)cc1)NC1CCS(=O)(=O)C1 (stereo not given)
7.3	6	Cc1n[nH]c2ccccc2c1=O
1.2	-12	COc1ccc(S(=O)(=O)N2CCCCCC2)cc1C(=O)Nc1ccc(C(=O)N(C)C)cc1
0.3	-2	CC(C)N(C(=O)[C@H]1C[C@H](CC(=O)NCCN2CCOCC2)C(=O)N2CCc3c([nH]c4ccc(Cl)cc34)[C@]12C)C(C)C
5.2	-3	O=[N+]([O-])c1ccc2nc[nH]c2c1
3.0	4	O=C(O)C(c1ccccc1)C1(O)CCC1 (stereo not given)
1.5	71*	Cc1noc(C)c1COc1ccccc1C(=O)N1CCN(S(=O)(=O)c2ccccc2Br)CC1
-0.6	-10	COc1cccc(NC(=O)CN(C)C(=O)c2ccc(OCC3CCCO3)cc2)c1 (stereo not given)
1.3	-7	O=C(COC(=O)c1ccc(S(=O)(=O)NCc2ccco2)cc1)Nc1ccccc1
-0.1	-7	O=C(C[C@@H]1C/C=C\C[C@H](Cc2ccc(F)cc2)C(=O)OC[C@H]2CCCN2C1=O)NCCO
4.7	-6	O=C(O)c1cc([N+](=O)[O-])cc2ccccc12
3.6	4	CN(CC(=O)Nc1c(Cl)cccc1Cl)C(=O)CCC(=O)c1ccccc1
-4.8	-5	CC1=[N+](C)c2c(ccc3cccnc23)C1(C)C
3.3	-15	O=[N+]([O-])c1ccc(C=NNc2ccccc2)cc1
1.0	14	COc1ccc(S(=O)(=O)N2CCOCC2)cc1NC(=O)c1ccc(S(=O)(=O)N(C)c2ccccc2OC)cc1
4.5	-3	CN(C(=O)CSc1ncnc2ccccc12)C1CCCCC1
0.5	2	COc1ccc(-c2noc(CCCC(=O)N3CCN(c4cc(C)ccc4C)CC3)n2)cc1

3 entries already listed, arranged by their value in Beta2AR agonist, low to high:
Compound | Beta2AR agonist
O=C(O)C1CCCN1C(=O)C1CCN(S(=O)(=O)c2cccc(C(F)(F)F)c2)CC1 (stereo not given) | -5
COc1cccc([C@@H]2CC=C(C(=O)O)[C@H](c3ccc(C)cc3)N2S(=O)(=O)c2ccc(C)cc2)c1 | -1
CCN1CCN(c2ccc(S(=O)(=O)N3CCOCC3)cc2NC(=O)c2ccc(OCC(C)C)cc2)CC1 | 4

Compound activity as filed in PubChem BioAssay.

The list is partial; rates above refer to the full screens.
